Marburg entry inh: Marburg virus entry inhibition | Marburg virus pseudotyped entry inhibition, cell reporter; control for the full effect not named in the record; about a third of the inactives were read at about 46 µM | Potency, µM (doses to about 37.8 µM), for the others: at the highest dose activity change, negative = inhibition, most hits filed as inhibitors | actives 1.8% (n = 300,000) | AID 540276; active = well fitted inhibition curve with a large enough effect; inconclusive = small, poorly fitted or top-dose-only effect, or effect the other way; inactive = flat fitted curve, though single readings scatter; tested in HEK293 cells; about a fifth of its hits are not listed in these tables; note: % is set by controls: 0 for no effect and ±100 for the full control effect; luciferase read-out
Lassa entry inh: Lassa virus entry inhibition | Lassa virus pseudotype entry inhibition, cell reporter; control for the full effect not named in the record | Potency, µM (titrated, usually from 37.9 µM), inactives show at the top dose activity change, negative = inhibition, actives largely listed as inhibitors | actives 1.2% (n = 300,000); active means well fitted inhibition curve with a large enough effect; inconclusive means small, poorly fitted or top-dose-only effect, or effect the other way; inactive means flat fitted curve, though single readings scatter; tested in HEK293 cells; note: % is set by controls: 0 for no effect and ±100 for the full control effect; nearly all actives have a fitted effect of over 50% in size; luciferase read-out
Cruzain inh noDet: blocks cruzain activity in detergent-free assay. purified cruzain, Z-FR-AMC fluorescence, no detergent. AID 1476. Potency, µM, for inactives: max response, negative = inhibition, hits mostly inhibitors. P25779. actives 2.3% (n = 200,000);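 note: plate controls were enzyme without inhibitor for no effect and buffer without enzyme for full effect; nearly all actives have a fitted effect of over 40% in size; top concentration of the series not given in the record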
Target sequence (P25779 123-467 limits assumed): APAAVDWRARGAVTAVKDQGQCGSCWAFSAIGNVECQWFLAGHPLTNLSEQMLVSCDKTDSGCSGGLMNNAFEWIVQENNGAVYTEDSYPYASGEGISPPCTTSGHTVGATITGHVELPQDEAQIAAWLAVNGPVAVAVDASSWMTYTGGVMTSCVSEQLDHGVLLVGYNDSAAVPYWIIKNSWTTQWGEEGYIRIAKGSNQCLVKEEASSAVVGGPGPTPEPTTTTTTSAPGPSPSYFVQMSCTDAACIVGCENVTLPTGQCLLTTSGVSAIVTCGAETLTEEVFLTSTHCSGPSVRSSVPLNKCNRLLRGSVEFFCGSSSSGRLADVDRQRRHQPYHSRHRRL
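Detergent-free condition (0.00005% Triton X-100) in acetate buffer pH 5.5 with DTT. 1.5 nM enzyme and compound were pre-mixed 15 min, then 2 uM Z-FR-AMC substrate added; reaction progress from fluorescence change between first and third reads (60 s).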
NS1 function inh: influenza NS1 inhibition | S. cerevisiae slowed by influenza A NS1, growth recovery by OD600 | Potency, µM (titrated, usually from 46.1 µM), without a hit: at the top dose activity, positive = more growth | actives 0.4% (n = 270,000); active means well fitted rising curve with a large enough effect; inconclusive means small, poorly fitted or top-dose-only effect; inactive means no such curve, though single readings can be large or run the other way; note: nearly all actives have a fitted effect of over 50% in size
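Compounds were scored for reversing the slow growth caused by influenza A NS1 in S. cerevisiae, measured by optical density at 600 nm. Assay medium contained 2% galactose at pH 6.0; NS1-free yeast of the same strain were the positive control.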
SARS PLP yeast: SARS-CoV PLP inhibition in yeast. Potency, µM (titrated, usually from 32.9 µM), for inactives: at the top dose activity, positive = growth rescue. AID 485353. actives 0.19% (n = 330,000). S. cerevisiae expressing SARS-CoV PLpro, growth rescue; control for the full effect not named in the record; active means well fitted rising curve with a large enough effect; inconclusive means small, poorly fitted or top-dose-only effect; inactive means no such curve, though single readings can be large or run the other way; note: 0% is about no effect; nearly all actives have a fitted effect of over 55% in size; growth read by luminescence after 48 h
RE007 growth inh: less growth of the S. pombe RE007 Vpr strain | Potency, µM (series often up to 92.2 µM), for inactives: top-dose activity change, negative = less growth | actives 0.21% (n = 360,000) | S. pombe RE007 Vpr strain, BacTiter-Glo ATP luminescence, 24 h; control for the full effect not named in the record; active = well fitted falling curve with a large enough effect; inconclusive = small, poorly fitted or top-dose-only effect; inactive = no such curve, though single readings can be large or run the other way;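 note: % is set by controls: 0 for no effect and ±100 for the full control effect; nearly all actives have a fitted effect of over 50% in size; the assay follows cell death caused by Vpr and the record does not say whether a fall means rescue or toxicity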
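Fission yeast RE007 carrying one integrated HIV-1 vpr copy, seeded at OD 0.01 in PMG+AL medium with 23 nL pinned compound. Grown 24 h at 30 degrees; viability read by BacTiter-Glo luminescence after 5 min.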
Cruzain Triton: blocks cruzain activity in presence of Triton detergent; P25779; purified cruzain, Z-FR-AMC fluorescence, 0.01% Triton; Potency, µM, for inactives: max response, negative = inhibition, usual class: inhibitors; actives 0.43% (n = 200,000); AID 1478;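 note: plate controls were neutral wells for no effect and buffer without enzyme for full effect; nearly all actives have a fitted effect of over 40% in size; top concentration of the series not given in the record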
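Detergent-containing arm of a paired screen for aggregation-based inhibition: 0.01% Triton X-100 present. Cruzain at 1.5 nM cleaved 2 uM Z-FR-AMC at pH 5.5 with 5 mM DTT; AMC fluorescence gain over 60 s measured activity.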
StopGo reporter: FMDV 2A StopGo reporter, luciferase signal. human cells with a luciferase reporter of 2A StopGo recoding; control for the full effect not named in the record. Potency, µM (highest dose often 57.9 µM), inactives show top-dose signal change, negative = less light. actives 1.2% (n = 410,000); active = well fitted falling curve with a large enough effect; inconclusive = small, poorly fitted or top-dose-only effect; inactive = no such curve, though single readings can be large or run the other way; tested in HEK293T cells; note: % is set by controls: 0 for no effect and ±100 for the full control effect; nearly all actives have a fitted effect of over 45% in size; luciferase light after 4 h
Numbers without * were called inactive; ? = inconclusive; · = no result given; [ ] = another dose, or the depositor's remark. Unless noted, calls come from the whole dose curve; as a rule, active = well fitted curve in the direction sought with a large enough effect; inconclusive = small, poorly fitted or top-dose-only effect, or another doubt; inactive = no such curve, though single readings can be large; an effect the other way counts as inactive or inconclusive. Potency is the fitted concentration of half-maximal effect.

SMILES	Marburg entry inh	Lassa entry inh	Cruzain inh noDet	NS1 function inh	SARS PLP yeast	RE007 growth inh	Cruzain Triton	StopGo reporter
CC(C)(C)c1ccc(OCc2nc3ccccc3n2CCOc2ccccc2)cc1	-5%[46.1 µM]	-9%[46.1 µM]	?	·	·	·	-3.6%	0%
CC1CCCC(C)N1C(=O)CCN1C(=O)C2C3C=CC(C3)C2C1=O (stereo not drawn)	·	·	·	5%	1%	13%	·	-20%
CCOc1ccc(CN2C(=O)c3ccccc3Sc3ccc(C(=O)N4CCN(C)CC4)cc32)cc1	0%[46.1 µM]	1%[46.1 µM]	-1%	·	·	·	-0.8%	-11%
CCN(CC)S(=O)(=O)c1ccc(/C=C/C(=O)OCC#N)cc1	-1%[46.1 µM]	12%[46.1 µM]	·	·	-1%	-23%	·	9%
O=C(N/C(=C/c1cccnc1)C(=O)N1CCOCC1)c1ccccc1	-13%	-3%	-5%	17%	1%	2%	0.6%	20%
O=C(/C=C/c1cccs1)N1CCCC1	21%[46.1 µM]	22%[46.1 µM]	·	-2%	-2%	22%	·	59%
Cc1sc2nc(C3CC3)nc(SCC(=O)N3CCCc4ccccc43)c2c1C	-9%	?	3%	26%	-22%	·	-4.9%	·
Cc1csc(NC(=S)Nc2cccc(Cl)c2)n1	?	?	-1%	-7%	-65%	-3%	-7.9%	-9%
C#CCOC(=O)/C(=C/C=C/c1ccccc1)NC(=O)c1ccccc1	?	3%	13µM*	-7%	13%	8%	7.1µM*	-4%
O=C(Nc1ncc(Cl)cc1Cl)c1c(F)cccc1Cl	5%[46.1 µM]	-4%	·	·	2%	-6%	·	25%
CC(C)(C)c1ccc(/C=C2\Oc3cc(O)ccc3C2=O)cc1	?	?	·	-31%	-11%	-8%	·	1%
CCN1CCN(C(=O)c2ccc(CS(=O)Cc3ccc(C)cc3)o2)CC1 (stereo not drawn)	-20%[46.1 µM]	12%[46.1 µM]	·	2%	?	-10%	·	-10%
CCCS(=O)(=O)N1CCCC(C(=O)Oc2ccc(OC)cc2)C1 (stereo not drawn)	-27%	-6%	·	?	0%	6%	·	-3%
COc1cc(Br)c(Br)cc1N	·	·	·	5%	0%	-15%	·	-5%
COC(=O)C1=C(C)NC2=C(C(=O)CCC2)C1c1cn(Cc2ccc(Br)cc2)nc1-c1ccccc1 (stereo not drawn)	?	-28%	6%	17%	9%	-15%	-24%	-9%
O=C(CSc1n[nH]c(=O)n1C1CC1)NCc1ccccc1	5%[46.1 µM]	7%	·	-30%	-1%	-1%	·	-4%
CCc1cccc(NC(=O)C2CCCN2S(=O)(=O)c2cccc3cccnc23)c1 (stereo not drawn)	?	-29%[46.1 µM]	·	-10%	0%	13%	·	-22%
Cc1ccc(NC(=O)C(Cc2ccccc2)NC(=O)OCc2ccccc2)cc1C (stereo not drawn)	?	?	-8%	-1%	-11%	-18%	-6.0%	-14%
O=C(c1cnccn1)N1CCN(c2ccccc2F)CC1	26%	3%	-5%	-12%	15%	-17%	1.8%	-9%
O=C(Nc1nnc(Cc2ccccc2F)s1)Nc1ccccc1F	·	·	·	-12%	-5%	6%	·	39%[activator]
Cc1ccc(-c2nc(CS(=O)CC(=O)NC3CCC(C)CC3)c(C)o2)cc1 (stereo not drawn)	·	·	?	-14%	0%	-7%	-3.2%	9%
COc1ccc(OC)c(S(=O)(=O)NCCO)c1	-5%	18%	-6%	5%	17%	19%	-1.2%	28%
CC12CC3CC(C)(C1)CC(C(=O)Nc1nn[nH]n1)(C3)C2	7%	6%	23%	-24%	-2%	-7%	4.5%	7%
C=C(C)COc1ccc2oc(C)c(C(=O)OCCOC)c2c1	5%	18%	4%	-38%	-10%	?	-2.6%	-14%
CC(=O)Nc1ccc(CC#N)cc1	?	0%[46.1 µM]	·	8%	0%	10%	·	-25%

(continued)
SMILES	Marburg entry inh	Lassa entry inh	Cruzain inh noDet	NS1 function inh	SARS PLP yeast	RE007 growth inh	Cruzain Triton	StopGo reporter
O=C(O)c1csc(Cc2ccccc2)n1	13%[46.1 µM]	5%[46.1 µM]	·	·	-1%	5%	·	8%
COC(=O)c1sccc1NC(=O)CSc1nnnn1-c1ccccc1F	-11%	-12%	-12%	0%	·	5%	-7.2%	-16%
CCc1ccc(NC(=O)CSc2nc3ccsc3c(=O)n2CCC(=O)O)cc1	·	·	·	19%	1%	-3%	·	-20%
O=c1c2cc(F)ccc2[nH]c(=S)n1Cc1ccc(F)cc1	-14%[46.1 µM]	16%[46.1 µM]	·	2%	1%	-9%	·	7%
Cc1ccc2nc(C)c3c(c2c1)N(c1ccccc1)CC3	5.6µM*	?	·	-45%	-2%	-27%	·	-10%
O=C(Nc1cccc2cccnc12)c1cccnc1	?	1%	-13%	-8%	-6%	5%	0.5%	-3%
O=C(Nc1cccc2c1CCCC2)c1ccccc1Cl	6%[46.1 µM]	30%[46.1 µM]	·	2%	15%	-17%	·	6%
O=c1c(NCc2ccccc2Cl)nccn1-c1ccccc1	·	?	-29%	·	·	·	-4.6%	65%[activator]
Fc1cccc(-c2nnn3c2nc(NCCc2ccccc2)c2ccccc23)c1	1%[46.1 µM]	11%[46.1 µM]	17%	·	·	·	0.9%	8%
Cc1ccc(N=Nc2c(C)[nH]n(C(N)=S)c2=O)cc1C	15%	?	-17%	-38%	0%	9%	-5.2%	3%
O=S(=O)(Nc1ccc(O)c(Sc2nc3ccccc3s2)c1)c1ccc(Cl)cc1	?	?	7%	-116%	-39%	43%	-2.8%	0%
CCN1CCCC1CN(Cc1cc2ccc(C)cc2[nH]c1=O)C(=S)Nc1cccc(OC)c1 (stereo not drawn)	10µM*	?	-9%	-1%	0%	3%	-2.4%	0%
CC[N+](CC)(CC)C/C(N)=N/O	23%[46.1 µM]	1%	11%	10%	-2%	0%	5.6%	-19%
COc1ccc(Cc2nc(-c3cccs3)no2)cc1OC	·	·	-8%	-67%	2%	-12%	-3.0%	-13%
O=C(CC1S/C(=N\S(=O)(=O)c2ccc(F)cc2)N(c2ccccc2)C1=O)Nc1ccccc1 (stereo not drawn)	-13%	16%	-21%	22%	12%	1%	-7.0%	-11%
Oc1c(Cl)cc(Cl)cc1C(C#Cc1ccccc1)N1CCOCC1 (stereo not drawn)	-14%	-18%	?	8%	-20%	-24%	-6.2%	-18%
CC(=O)OCC1OC(n2ccc(=O)[nH]c2=O)C(O)C1O (stereo not drawn)	5%	9%	-4%	0%	3%	20%	1.7%	-14%
COc1ccc(CCN2C(=O)CCC2(C)C(=O)NC2CCCC2)cc1OC (stereo not drawn)	0%[46.1 µM]	16%	·	·	-5%	12%	·	-6%
CN(Cc1ccccc1)C(=O)c1cnc2n(c1=O)CCS2	13%	3%	-3%	7%	-22%	-3%	-4.4%	5%
CC(C)NC(=O)Nc1cccc(Cl)c1	?	11%	·	-1%	-1%	-1%	·	-11%
Cc1ccc(-n2nc3c(c2NC(=O)c2cccs2)CS(=O)(=O)C3)cc1	·	·	·	6%	1%	-6%	·	-24%
COc1ccc(NC(=O)c2ocnc2C)cc1OC	-9%	?	6%	5%	-6%	4%	4.3%	34%[activator]
O=C(CSc1nc2ccccc2nc1N1CCCC1)Nc1ccc(Cl)cc1	·	·	·	-3%	-5%	4%	·	-10%
CC(=O)Nc1ccc(S(=O)(=O)Nc2ccc(Cl)nn2)cc1	?	-5%	-2%	6%	21%	·	-4.1%	-17%
O=C1CN(C(=O)COC(=O)c2ccccc2NCc2ccco2)c2ccccc2N1	?	?	12%	5%	1%	14%	-25%	-1%

New compounds follow
SMILES	Marburg entry inh	Lassa entry inh	Cruzain inh noDet	NS1 function inh	SARS PLP yeast	RE007 growth inh	Cruzain Triton	StopGo reporter
Fc1cccc(Cl)c1Cn1nnc2c(-n3ccnc3)ncnc21	13%[46.1 µM]	1%	-5%	-52%	-19%	12%	-8.1%	-9%
Cc1cc(C)c(C)c(S(=O)(=O)Nc2ccc(OCC(=O)O)cc2)c1C	·	·	-4%	8%	-1%	-1%	0.1%	-7%
CC(C)(C)c1ccc(-c2nc3cc(NC(=O)c4cccc(Br)c4)ccc3o2)cc1	·	10%[46.1 µM]	7%	·	·	·	0.5%	0%
Cn1c(=O)cc(SCC(=O)N2CCN(c3ccccn3)CC2)c2ccccc21	0%	15%	-13%	-14%	3%	-13%	-4.1%	17%
CCN(CC)CCC#CC(O)(c1ccccc1)C1CCCCC1 (stereo not drawn)	?	?	·	-5%	0%	-10%	·	-9%
CC(C)c1nc(CNC(=O)C2CCC(=O)N(CCc3ccc(Cl)cc3)C2)no1 (stereo not drawn)	5%	-18%	·	-1%	-4%	14%	·	-7%
Cn1cc(S(=O)(=O)NCc2ccco2)c(=O)n(C)c1=O	·	·	0%	-37%	-3%	2%	7.4%	-19%
CCOC(=O)C1(CC)NC(c2ccc(N(C)C)cc2)C2C(=O)N(C)C(=O)C21 (stereo not drawn)	5%	-2%	-3%	2%	-3%	9%	4.8%	-12%
CC(NC(=O)c1cc(S(=O)(=O)N(C)C)ccc1Cl)C1CC2CCC1C2 (stereo not drawn)	?	?	·	6%	2%	-4%	·	-22%
COc1ccc(CN2C(=O)NC(=O)/C(=C/c3ccc(OC)c(OC)c3OC)C2=O)cc1	-9%[46.1 µM]	-13%	·	10µM*	0%	3%	·	-14%
O=S(=O)(c1ccc(-c2n[nH]c(=S)o2)cc1)N1CCCC1	6%[46.1 µM]	4%	·	6%	-1%	0%	·	11%
O=C(NC1CC1)c1sccc1-n1cccc1	4%	?	-3%	7%	2%	-2%	12%	10%
O=S1(=O)N=C(N2CCCc3ccccc32)c2ccccc21	20%	7%	-12%	14%	7%	9%	6.4%	12%
CC(C)C(=O)NC(NC1CCS(=O)(=O)C1)C(Cl)(Cl)Cl (stereo not drawn)	17%	8%	·	-2%	0%	1%	·	7%
Cc1ccccc1C(=O)NC(=S)Nc1ccc(S(=O)(=O)N2CCOCC2)cc1	17%	4%	1%	-31%	10%	10%	-6.4%	-1%

Hits appear at their usual frequency; 4.8% or so of the library scored in one or more.
